High-throughput results: PubChem BioAssay, Johns Hopkins Ion Channel Center
KCNQ2 enhance – potentiators of rat KCNQ2 potassium channel. O88943. CHO-K1 KCNQ2, FluxOR thallium flux fluorescence; hits give high values. B-score at 10 µM. hit rate 0.54% among 310,000. AID 2239;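 active means fluorescence ratio B-score at least 3 SD of library B-scores, with initial fluorescence B-score within 3 SD, cut at about 5.3 in these data; same plate scores as AID 2156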;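 further: B-score of peak minus minimum over baseline fluorescence ratio after K+ and Tl+ stimulus; positive B-score means potentiation of KCNQ2 with more thallium influx and brighter signal; only the inactives scoring about 0 or higher are listed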
Target sequence (O88943 whole entry, looked up): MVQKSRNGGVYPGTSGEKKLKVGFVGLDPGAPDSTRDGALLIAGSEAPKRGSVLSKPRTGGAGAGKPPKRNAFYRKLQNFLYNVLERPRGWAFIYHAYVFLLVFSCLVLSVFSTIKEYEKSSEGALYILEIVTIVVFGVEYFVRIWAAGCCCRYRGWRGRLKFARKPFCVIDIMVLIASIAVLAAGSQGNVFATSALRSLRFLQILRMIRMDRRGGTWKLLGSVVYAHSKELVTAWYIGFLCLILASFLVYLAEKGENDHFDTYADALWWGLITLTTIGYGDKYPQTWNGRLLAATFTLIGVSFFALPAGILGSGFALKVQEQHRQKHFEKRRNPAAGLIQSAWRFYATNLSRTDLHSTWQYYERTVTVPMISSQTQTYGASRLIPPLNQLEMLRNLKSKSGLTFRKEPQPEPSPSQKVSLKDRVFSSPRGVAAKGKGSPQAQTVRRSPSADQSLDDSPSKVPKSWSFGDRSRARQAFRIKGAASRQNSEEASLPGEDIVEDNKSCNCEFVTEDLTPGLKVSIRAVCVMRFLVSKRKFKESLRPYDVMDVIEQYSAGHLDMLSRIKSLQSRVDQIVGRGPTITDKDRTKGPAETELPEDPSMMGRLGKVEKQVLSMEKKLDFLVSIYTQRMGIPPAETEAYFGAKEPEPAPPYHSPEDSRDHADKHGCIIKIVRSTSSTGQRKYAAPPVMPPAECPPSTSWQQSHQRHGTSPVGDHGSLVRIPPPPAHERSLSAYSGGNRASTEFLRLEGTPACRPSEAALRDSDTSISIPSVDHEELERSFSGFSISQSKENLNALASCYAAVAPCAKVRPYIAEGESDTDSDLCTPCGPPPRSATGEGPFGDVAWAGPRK
KCNQ2 enhance baseline – also measured in KCNQ2 enhance; calls as there; B-score; compound at 10 µM; measured here: initial fluorescence intensity artifact check;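 brightness before thallium and not channel activity; 0 = typical well and far values either way flag optical interference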
Starred values were filed as active, the others as inactive.

SMILES	KCNQ2 enhance	KCNQ2 enhance baseline
CC(C)(C)S(=O)(=O)c1cnc2c(-c3ccsc3)cnn2c1N	0.1	0.69
COC(=O)c1ccc(NC(=O)Nc2cccc(F)c2)cc1	1.4	1.5
Cc1ccc(C(=O)Nc2cc3c(cc2N2CCCCC2)n(C)c(=O)n3C)cc1	1.2	1.6
O=C1CC(c2ccccc2)n2nc(NC(=O)c3ccccc3)nc2N1 (stereo not given)	1.4	-0.77
CCc1cc2cc(OC)ccc2nc1SCC(=O)NNC(=O)c1ccco1	0.85	0.59
CCN(CC)CCN1C(=O)C(=O)/C(=C(/O)c2c(C)[nH]c(C(=O)OC)c2C)C1c1ccc(C)o1 (stereo not given)	1.5	-1.3
CCNC(=S)N1CCN(S(=O)(=O)c2ccccc2C(F)(F)F)CC1	1.1	1.3
O=C(Cn1ncc2c(=O)oc3ccccc3c21)NCCc1ccsc1	0.14	-0.25
CCOc1ccc(C(=O)NC(=S)NC2CCCC2)cc1[N+](=O)[O-]	0.37	-1.2
CCOc1ccc(S(=O)(=O)Nc2ccccc2C(=O)NCC2CCCO2)cc1 (stereo not given)	1.2	-1.4
Cc1cc(NC(=O)COC(=O)COc2ccc(C(=O)c3ccccc3)cc2)no1	0.32	-0.58
Cc1noc(C)c1S(=O)(=O)N(CC(=O)N1CCCC1)c1ccc(C(C)C)cc1	0.95	-0.93
O=C(Oc1ccc2c(c1)C(=O)c1ccccc1CO2)c1ccccc1	0.41	-0.15
Cc1ccc(C(=O)NCc2ccccn2)cc1NC1=NC2CS(=O)(=O)CC2S1 (stereo not given)	1.6	-1.4
COc1ccccc1N(CC(=O)Nc1ccc2c(c1)OCCO2)S(C)(=O)=O	0.02	2.1
COc1cc(-c2nnc(-c3cccs3)o2)cc(OC)c1OC	0.74	-1.4
CCN(CC)CCNC(=O)c1ccc(NC(=O)Nc2cccc3ccccc23)cc1	0.01	0.72
COc1cc(OC)c(NC(=O)CC(C)=O)cc1Cl	0.37	-0.48
CC(=O)c1oc2ccccc2c1NC(=O)COC(=O)c1ccc(-n2nc(C)cc2C)cc1	0.01	-0.01
CCCOc1ccc(C(=O)OCC(=O)c2c(N)n(C)c(=O)n(C)c2=O)cc1OC	0.07	-0.49
COc1ccc2sc(N(CCN(C)C)C(=O)c3cc(Cl)sc3Cl)nc2c1	0.21	1.6
COc1ccc(OC)c(NC(=O)c2cccnc2Sc2ccccc2)c1	0.76	-2.2
O=C(Nc1ccc(F)cc1)c1nc2c(nnn2Cc2cccc3ccccc23)c(=O)[nH]1	0.75	-1.1
O=C(O)CSCc1nc2scc(-c3ccccc3)c2c(=O)[nH]1	0.23	1.5
O=C(CSc1nnc(-c2ccco2)o1)c1ccc[nH]1	1	-0.06
SMILES	KCNQ2 enhance	KCNQ2 enhance baseline
Cc1nc(C)c(-c2nnc(-c3cccc(S(=O)(=O)N(C)C)c3)o2)cc1C(=O)NN	1.5	0.3
CCn1c(CCC(=O)N(C)CC(=O)Nc2cccc(F)c2)nc2cc(S(=O)(=O)N(C)C)ccc21	0.43	-0.98
COc1cccc2cc(C(=O)NC3CC(C)(C)NC(C)(C)C3)c(=O)oc12	1.5	-0.1
CC(/C=C1\SC(=S)N(C(C(=O)O)c2ccccc2)C1=O)=C\c1ccccc1 (stereo not given)	2.2	-0.48
Cc1cc(-c2onc(C)c2C(N)=O)no1	0.1	0.51
COc1ccc(-c2ccc(OC)c([C@H]3[C@H]4C=CC[C@@H](C)[C@@H]4C(=O)N3Cc3ccccc3)c2)cc1C	1.2	-0.03
CCC1CCCCN1CCCNC(=O)Cn1nc(-c2ccc(C)cc2)ccc1=O (stereo not given)	2.4	-0.38
Cc1cccc(-c2oc3ccc(-c4ccc5c(c4)OCO5)cc3c2C(=O)OCc2ccc(O)cc2)c1	0.89	-0.23
CN(Cc1ccccc1)C(=O)CN1C(=O)C2C3C=CC(C3)C2C1=O (stereo not given)	0.78	-0.05
CC(C)(C)OC(=O)N1CCC[C@H]1C(=O)Nc1ccc(C#N)cc1	1.8	-0.04
COc1cccc(/C=N/NC(=O)c2cc3c(OC)cccc3[nH]2)c1O	0.01	0.66
Cc1onc(-c2ccccc2Cl)c1C(=O)Nc1ccc(OCC(=O)N2CCOCC2)cc1	0.88	-0.01
CCC(C)N(C(=O)CSc1nnc(NC(C)C)s1)C1CCS(=O)(=O)C1 (stereo not given)	0.01	1.8
COc1ccc(CNC(=O)CN(C)S(=O)(=O)c2ccc(Br)s2)cc1	1.3	-1.1
COC(=O)CP(=O)(c1ccccc1)c1ccccc1	0.32	-0.91
CCOc1c(Br)cc(C2NS(=O)(=O)N=C3CCCCCN32)cc1OC (stereo not given)	0.35	0.79
CCOC(=O)c1c(C)[nH]c(C(=O)N/N=C/c2cccc(OC)c2)c1C	0.59	-0.32
O=C(NC1CC1)C1=NOC(CNc2ncc(C(F)(F)F)cc2Cl)C1 (stereo not given)	0.09	-0.56
O=C(Nc1ccc2oc(=O)ccc2c1)c1cccnc1	0.13	-0.28
O=C(CS(=O)(=O)Cc1ccccc1)Nc1ccccc1Cl	0.72	-1.3
O=C(CSCCS(=O)(=O)c1ccc(Cl)cc1)Nc1ccccc1	0.01	-1.8
CC(C)N1CCC(N2CCN(Cc3ccc4nsnc4c3)CC2CCO)CC1 (stereo not given)	1.2	-1.2
COCCNC(=O)c1ccccc1NC(=O)COc1ccccc1	0.42	0.75
CN(CC(=O)Nc1ccc(F)cc1)C(=O)Cn1nnc(-c2ccccc2)n1	1.9	1.3
Cc1ccc(C)c(N2CCN(C(=O)C3CCN(S(=O)(=O)c4c(C)noc4C)CC3)CC2)c1	0.14	1.2
SMILES	KCNQ2 enhance	KCNQ2 enhance baseline
Nc1cccc(-c2nc3cc(S(=O)(=O)c4ccc5oc(-c6cccc(N)c6)nc5c4)ccc3o2)c1	0.06	-0.36
c1csc(-c2nnc(NC3CCCCC3)c3ccccc23)c1	1.6	0.1
O=C(CSc1ccc(Cl)cc1)Nc1cccc(-c2nc3ccccc3[nH]2)c1	1.2	-2.2
O=C(CN1CCC(n2nnc3cc(F)ccc32)CC1)NC1CCCCC1	2.2	-1.1
CCOC(=O)c1oc2ccccc2c1NC(=O)C1CCCCC1	0.95	0.37
CCOc1ccc2nc(NC(=O)CN3C(=O)NC4(CCCC4)C3=O)sc2c1	1.2	-0.27
COc1ccc(C(=O)c2oc3ccc(Br)cc3c2NC(C)=O)cc1	2.6	0.77
Cc1cc(C)nc(/N=C(\N)Nc2ccc(F)c([N+](=O)[O-])c2)n1	1.9	1.2
Cc1ncc(CN2CCN(C3CCCC3)C(CCO)C2)s1 (stereo not given)	0.85	1.8
COc1ccc(NC(=O)[C@H](C)NC(=O)C2CCN(S(=O)(=O)c3ccc(C)cc3)CC2)cc1OC	0.02	0.99
CCN(CC)CCNC(=O)c1cc(Nc2ccc(OC)c(OC)c2)nc2ccccc12	0.84	-0.92
NC(=O)c1ccc(SCC(=O)NC2CCCCC2)c([N+](=O)[O-])c1	0.6	0.63
COc1ccc(NC(=O)CNC(=O)c2cccs2)cc1Cl	0.04	-0.97
COc1ccc(-c2nc(CS(=O)CC(=O)NCc3ccc4c(c3)OCO4)c(C)o2)cc1OC (stereo not given)	0.85	0.39
Cn1c(SCC(=O)N(C2CCCCC2)C2CCCCC2)nnc1-c1cccs1	1.1	-1.5
COc1cc(/C=C2/C(=O)NN(c3ccc(F)cc3)C2=O)cc(Cl)c1O	2.2	-0.79
Cc1ccccc1CN(c1ccc(C(=O)N/N=C/c2ccc(OCC(N)=O)cc2)cc1)S(C)(=O)=O	0.47	1.1
Cc1cc(C)c(-c2csc(NC(=O)C3=NN(c4ccccc4)C(=O)CC3)n2)c(C)c1	0.42	-0.75
O=C(CSc1nnc(C2COc3ccccc3O2)o1)N1CCOCC1 (stereo not given)	2.1	0.38
CC(C)NC(=O)C1CCN(C2CCN(Cc3ccc4cccc(F)c4n3)CC2)CC1	0.14	2.6
CCCOc1ccc(-c2cn3ccccc3n2)cc1	0.01	-0.72
Cc1cc(C)nc(SCC(=O)N/N=C\C(Br)=C\c2ccccc2)n1	0.01	-0.56
CC(Sc1nnc2ccccn12)C(N)=O (stereo not given)	0.01	0.27
CCCCC(=O)Nc1ccc(NCc2ccc(C)s2)cc1	30*	-0.43*
CCC1=NN2C(=N)/C(=C\c3ccc(SCc4ccco4)o3)C(=O)N=C2S1	1.2	1.8

Compound profiles, as listed above. Order of values: KCNQ2 enhance	KCNQ2 enhance baseline
COc1ccc(C(=O)c2oc3ccc(Br)cc3c2NC(C)=O)cc1 reads 2.6	0.77
Cn1c(SCC(=O)N(C2CCCCC2)C2CCCCC2)nnc1-c1cccs1 reads 1.1	-1.5
CC(C)NC(=O)C1CCN(C2CCN(Cc3ccc4cccc(F)c4n3)CC2)CC1 reads 0.14	2.6
COc1ccc(NC(=O)CNC(=O)c2cccs2)cc1Cl reads 0.04	-0.97
Cc1cc(C)nc(SCC(=O)N/N=C\C(Br)=C\c2ccccc2)n1 reads 0.01	-0.56

Ordered by length of the SMILES (high to low): part of the list above
SMILES	KCNQ2 enhance	KCNQ2 enhance baseline
COc1ccc(-c2nc(CS(=O)CC(=O)NCc3ccc4c(c3)OCO4)c(C)o2)cc1OC (stereo not given)	0.85	0.39
Cc1cc(C)nc(/N=C(\N)Nc2ccc(F)c([N+](=O)[O-])c2)n1	1.9	1.2
COc1ccc(C(=O)c2oc3ccc(Br)cc3c2NC(C)=O)cc1	2.6	0.77
COc1ccc(NC(=O)CNC(=O)c2cccs2)cc1Cl	0.04	-0.97

Further records.
SMILES	KCNQ2 enhance	KCNQ2 enhance baseline
COc1ccccc1NC(=O)CCN1C(=O)C2C3CCC(C3)C2C1=O (stereo not given)	1.4	-0.08
N/C(=N/O)c1ccccc1N1CCC(Cc2ccccc2)CC1	0.46	1.9
COc1ccc2c(c1)C=C(CN1CCN(C(C)C)C(CCO)C1)CO2 (stereo not given)	0.61	1.1
Cn1c(=O)n(CCc2ccccc2)c(=O)c2c1nc1n2CCN1Cc1ccco1	0.69	1.7
CC(C)CN1CCN(Cc2ccc(Oc3ncccn3)cc2)CC1CCO (stereo not given)	0.02	0.16
CC(Cl)C(=O)Nc1ccccc1C#N (stereo not given)	0.21	0.65
COc1ccccc1NC(=S)NC(=O)CCCOc1ccc(Cl)cc1Cl	0.12	0.5
CCCNC(=S)NNC(=O)c1cc(C2CC2)nc2ccccc12	0.76	0.18
O=S1(=O)CCC(NC(=S)Nc2ccccc2)C1 (stereo not given)	0.32	2.3
CC(=O)N(c1ccc2oc(=O)sc2c1)S(=O)(=O)c1ccccc1	1.3	-0.16
COC(=O)C1=C(CS(=O)(=O)c2ccc(Cl)cc2)NC(=O)NC1c1ccc(O)c(OC)c1 (stereo not given)	2.3	0.25
COC(=O)c1cc(OC)c(OC)c(OC)c1N	0.31	-0.38
O=C(Nc1ccccc1)Oc1ccccc1N1CCOCC1	0.43	0.82
C/C(=N/NC(=O)c1ccc(Br)s1)c1cccnc1	0.67	1.8
O=C(Cn1cnc2ccccc21)N/N=C/c1cccc([N+](=O)[O-])c1	1.5	-1.3
COc1ccc(C(=O)O)cc1S(=O)(=O)N(C)CCc1ccccn1	0.92	-0.85
COCC(C)NC(=O)c1noc2c1CCc1cc(OC)ccc1-2 (stereo not given)	1.4	-0.93
Cn1c(SCC(=O)N2CCCC2)nnc1-c1cnccn1	1.3	0.47
COc1ccc(N/C=C/C(=O)c2ccc(C)cc2)c([N+](=O)[O-])c1	0.66	-0.87
COc1ccc(N2CCN(C(=O)COc3ccc4c(C)cc(=O)oc4c3C)CC2)cc1	0.41	1.8
Cc1cc(/C=C(/C#N)c2nc3ccccc3[nH]2)c(C)n1-c1cccc([N+](=O)[O-])c1	0.01	0
CCc1nnc(N/N=C\c2ccc(OC(C)=O)c(OC)c2)n1N	1.1	-0.27
Cc1ccc(C)c(NC(=O)/C(C#N)=C/c2ccc[nH]2)c1	0.27	-2.1
COc1ccc(-c2oc3cc(OC)c(O)c(OC)c3c(=O)c2OC)cc1O	0.12	0.05
CCOC(=O)c1c(C)n(-c2ccccc2)c2ccc(O)c(CN(C)C)c12	0.87	2.9
SMILES	KCNQ2 enhance	KCNQ2 enhance baseline
CCCn1c2ccccc2c2nnc(SCCN3CCOCC3)nc21	1.8	1.1
CCC(=O)Nc1ccc(S(=O)(=O)Nc2ncccn2)cc1	0.36	1.8
O=c1c2cnn(-c3ccccc3)c2ncn1Cc1ccco1	1.4	-0.02
CCCCCCCn1c2c(c(=N)c3ccccc31)CCC2	0.02	2.1
Cc1cc(=O)n2[nH]c(C(F)(F)F)c(-c3ccccc3)c2n1	1.2	-1.6
COc1ccc(Nc2nc(N)nc(CSc3n[nH]c(-c4ccccc4)n3)n2)cc1	1.6	-1.8
CNC(=O)C(=O)NCCN1CCN(C(=O)c2ccc([N+](=O)[O-])cc2)CC1	0.29	2.2
O=C(Nc1ccc(NC(=O)c2ccco2)nc1)c1ccccn1	0.12	0.25
Cc1cc(C)c2cc(C(=O)N(C)C3CCN(C)CC3)[nH]c2c1	0.8	-0.9
CCn1c(SCC(=O)N2CCCCC2C)nc2ccsc2c1=O (stereo not given)	2.1	1.2
Cc1ccc(-n2c(Cc3cccc4ccccc34)n[nH]c2=S)c(C)c1	0.21	-0.59
CCCCOC(=O)C1=C(C)Nc2ncnn2C1c1cccc(OC)c1OC (stereo not given)	0.97	-0.06
COC(=O)c1ccc(N2C(=O)CC(SCC(=O)Nc3ccc(OC)cc3)C2=O)cc1 (stereo not given)	0.03	0.89
CCOc1ccc(NC(=O)C2CCCN(S(C)(=O)=O)C2)cc1 (stereo not given)	0.18	1.8
O=C(CN1C(=O)c2ccccc2S1(=O)=O)N1CCN(c2ccccc2F)CC1	0.12	1.5
COC(=O)C1CCN(C(=O)NC2CCCCC2)CC1	0.04	2.2

These rows are one share of the data; count on the stated rates, not on these rows.
